Source: PubChem BioAssay
ClpP mod: qHTS Assay for Activators of ClpP. ATP-dependent Clp protease proteolytic subunit (Bacillus subtilis (strain 168)), P80244. purified B. subtilis ClpP, FRET peptide cleavage, 20 min. Potency, µM (highest dose often 57.5 µM), inactives show top-dose activity change, negative = active. hit rate 1.9% among 340,000. AID 651965, 2013; active = well fitted falling curve with a large enough effect; inconclusive = small, poorly fitted or top-dose-only effect; inactive = no such curve, though single readings can be large or run the other way; also: potency is read from the fitted curve at half-maximal effect; the source files actives as falling curves though it sought activators and does not explain the sign; nearly all actives have a fitted effect of over 65% in size; many hits overshoot -100%
Target sequence (P80244 whole entry, looked up): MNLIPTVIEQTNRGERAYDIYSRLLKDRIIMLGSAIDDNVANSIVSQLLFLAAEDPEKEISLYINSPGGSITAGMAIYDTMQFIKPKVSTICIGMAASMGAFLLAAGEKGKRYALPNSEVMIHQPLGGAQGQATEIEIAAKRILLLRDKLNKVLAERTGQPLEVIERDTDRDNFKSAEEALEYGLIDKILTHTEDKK
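FRET quenching reversal measured ClpP activation: 10 microg/mL B. subtilis ClpP at pH 8 with the FRET-FV decapeptide, read at 430 nm after 320 nm excitation. The 20-min minus 0-min signal was scaled between DMSO/no-enzyme wells and ADEP (5.8 microM final).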
PINK1 expr mod: modulators of PINK1 expression; hit rate 0.2% among 410,000; PINK1 immunofluorescence, high-content cytometry, 24 h; AID 624263; Potency, µM (titrated, usually from 76.6 µM), for the others: at the top dose activation (PINK1 increase), hits mostly activators; active = well fitted activation curve with a large enough effect; inconclusive = small, poorly fitted or top-dose-only effect; inactive = flat fitted curve, though single readings scatter; cell line not stated here;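 also: potency is read from the fitted curve at half-maximal effect; % of control where 0% means no effect; nearly all actives have a fitted effect of over 65% in size; a mitochondrial uncoupler was the plate control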
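Decision-based qHTS: stable cells, 24 h exposure to five compound concentrations, CCCP as control. Fixed cells stained for PINK1 plus nuclear, mitochondrial and cell markers, cytometer read.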
TRPML1 blocker: blocks the human TRPML1 channel; Q9GZU1; TRPML1-inducible cells, Ca2+ dye fluorescence, FDSS; stronger effect = lower value; inhibition of EC80 agonist-evoked calcium signal; activity change, negative = inhibition, % (concentration not given with the values); hit rate 0.02% among 390,000; in the data active means activity change below about -50%; inconclusive means about -30% to -50%; inactive means above about -30%;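 also: stimulus is agonist 54-4 at its EC80 concentration; % is scaled to controls: 0 for no effect and ±100 for the full control effect; compound concentration not given in the record; the text of the record puts the active cut at -80%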
Target sequence (Q9GZU1 whole entry, looked up): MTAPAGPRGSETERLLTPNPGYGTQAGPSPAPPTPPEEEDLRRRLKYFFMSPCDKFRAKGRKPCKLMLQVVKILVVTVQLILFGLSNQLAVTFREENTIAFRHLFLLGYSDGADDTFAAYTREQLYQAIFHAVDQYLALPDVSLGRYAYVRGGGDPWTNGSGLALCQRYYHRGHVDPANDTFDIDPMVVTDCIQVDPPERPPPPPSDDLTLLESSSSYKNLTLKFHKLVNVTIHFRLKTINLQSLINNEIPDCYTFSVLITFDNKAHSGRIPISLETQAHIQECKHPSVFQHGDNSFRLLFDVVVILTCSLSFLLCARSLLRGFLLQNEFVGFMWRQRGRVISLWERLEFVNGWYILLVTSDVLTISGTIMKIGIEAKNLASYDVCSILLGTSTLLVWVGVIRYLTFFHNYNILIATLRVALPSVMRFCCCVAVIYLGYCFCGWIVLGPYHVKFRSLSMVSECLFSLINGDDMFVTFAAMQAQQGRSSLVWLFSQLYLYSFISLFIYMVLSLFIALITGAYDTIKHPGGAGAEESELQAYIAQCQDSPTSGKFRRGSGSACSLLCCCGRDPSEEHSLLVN
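Calcium fluorescence in TRPML1-DL cells induced overnight with Tet: a 110 s read after compound pin addition, then a 110 s antagonist read after challenge with 54-4 at 4 uM final (EC80).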
TRPV1 PAM: human TRPV1 potentiation; Q8NER1; TRPV1-expressing cells, Fluo-8 calcium influx, capsaicin EC20 potentiation; host cell line not named in the record; control for the full effect not named in the record; potentiation, % at 8.33 µM; hit rate 0.02% among 320,000; AID 540277; active means potentiation above 80%; inconclusive means 30% to 80%; inactive means below 30%; also: 0% is about no effect
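Cells expressing TRPV1 were dye-loaded with Fluo-8 and read kinetically: 10 s baseline, 3 min after compound (agonist portion), then 2 min after EC20 capsaicin (allosteric enhancer portion). Calcium-bound dye fluorescence at 480/520 nm.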
Sfp inh: blocks B. subtilis Sfp PPTase activity; AID 1490; hit rate 3.5% among 310,000; Biochemical Sfp PPTase activity, qHTS; Potency, µM, inactives show max response, negative = inhibition, actives largely listed as inhibitors; active = well fitted inhibition curve with a large enough effect; inconclusive = small, poorly fitted or top-dose-only effect, or another doubt; inactive = no such curve, though single readings can be large or run the other way;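 also: the enzyme is Sfp with the accession as filed and its product quenches rhodamine fluorescence; potency is read from the fitted curve at half-maximal effect; 0% = enzyme reaction without inhibitor and -100% = no enzyme wells; top concentration of the series not given in the record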
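Fluorescence-quenching assay with 15 nM Sfp, 5 uM rhodamine-CoA and 12.5 uM BHQ-2-labelled ybbR peptide in pH 7.6 Hepes/MgCl2 buffer. Enzyme was pre-incubated with compound for 15 min at room temperature. Rate was taken from the 30-min fluorescence change (525/598 nm).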
Menin MLL FP FL: menin-MLL binding inhibition, fluorescein peptide; FP activity change, % at 61.4 µM; Fluorescence polarization, fluorescein-MLL peptide displacement from menin; 290,000 tested, under 10 active; inconclusive = falling polarisation curve, or a change in total fluorescence; inactive = total fluorescence flat and polarisation flat or rising; no compound was filed as active; the % refers to the polarisation; negative = inhibition;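 also: % of control where 0% means no effect; inhibitors lower the polarisation; unlabelled MLL peptide was the positive control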
TRPML1 ag: human mucolipin-1 channel agonism; activation, % (test concentration not listed); hit rate 0.12% among 410,000; Q9GZU1; TRPML1-expressing cells, Ca2+ dye fluorescence, FDSS; host cell line not named in the record; reference of the full effect not given here; in the data active = activation above about 50%; inconclusive = about 30% to 50%; inactive = below about 30%; also: 0% is about no effect; the text of the record puts the active cut at 80%
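Tetracycline-induced TRPML1-DL cells are seeded and incubated overnight before loading with a no-wash Ca2+ dye and quencher. Agonist activity is taken from the 110 s fluorescence read following compound pin-transfer on an FDSS, before EC80 54-4 challenge.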
* = called active by the depositor; u = inconclusive; x = no result given; & = joins results of further samples; [ ] = remark or other dose.

Molecule | TRPML1 ag | Sfp inh | PINK1 expr mod | ClpP mod | TRPV1 PAM | TRPML1 blocker | Menin MLL FP FL
CCc1nn(CC(=O)NCCCc2ccccc2)c(=O)c2cc3ccccc3n12 | -0.6 | x | 1.9% | -19.6% | x | -3.9 | x
O=C(Nc1ccc(Cl)c(-c2nc3ccccc3[nH]2)c1)c1cccnc1 | -0.4 | 6.5% | -1.5%[38.3 µM] | -6.7% | -2.2 | -0.5 | 3.5
S=c1[nH]nc(Cc2ccc(Cl)cc2)o1 | 0.0 | -19.2% | -1.2% | x | -21.8 | -20.4 | 1.5
CC(=O)Oc1ccccc1C(=O)OCCN=C1NS(=O)(=O)c2ccccc21 | -0.5 | 15.6% | 2.2% | x | -0.9 | -15.2 | -2.7
CCOc1ccc(N(CC(=O)OC)S(=O)(=O)c2ccc3c(c2)n(C)c(=O)c(=O)n3C)cc1 | 1.8&-1.1 | 6.0% | -0.1%&-0.6% | -1.1%&-0.2% | u | -13.6&19.0 | -2.6
CN(C)S(=O)(=O)c1ccc2c(c1)C(=NNC(N)=O)c1cc(S(=O)(=O)N(C)C)ccc1-2 | -0.6 | 12.2% | 5.5% | 4.9% | -3.6 | 10.0 | 1.3
Cc1ccc(CN2CCC(c3nc4ccc(Cl)cc4[nH]3)CC2)cc1 | 3.4 | 2.8% | -1.6%[38.3 µM] | 0.1% | -9.8 | -1.3 | 3.9
O=C(NCCCn1ccnc1)c1ccc(Cl)c(S(=O)(=O)N2CCOCC2)c1 | 0.1 | -5.0% | x | -1.7% | 7.3 | 5.6 | -0.3
c1ccc(-c2cnnc3ccccc23)cc1 | -0.9 | x | -0.6% | -3.0% | 10.0 | 37.5 | x
COc1ccc(OC)c(S(=O)(=O)N2CCC(C(=O)Nc3cccc(C(F)(F)F)c3)CC2)c1 | 4.2 | 12.9% | 2.5% | 1.5% | 2.8 | 37.8 | 1.8
O=C(c1cccc(S(=O)(=O)N2CCCC2)c1)N1CCN(c2ccccc2)CC1 | 0.5 | 20.9% | 16.3%[38.3 µM] | 1.1% | -14.7 | 7.6 | -1.4
COc1ccccc1CNC(=O)[C@H](CCSC)NC(=O)[C@@H]1Cc2ccccc2CN1 | x | 5.7% | 0.8% | 0.1% | -7.1 | x | -0.4
Cc1cc(F)ccc1S(=O)(=O)Nc1c(C)n(C)n(-c2ccccc2)c1=O | -0.7 | 13.2% | 0.5% | 2.5% | -0.7 | 16.7 | 0.2
CCSc1nnc(-c2ccccc2N)c(=O)[nH]1 | 1.1 | 2.8% | u | 0.6% | 18.9 | -10.8 | 5.9
COCc1cc(CN2CCCC(C(=O)Nc3ccc(-c4ccco4)cc3)C2)ccc1OC (configuration not stated) | -0.5 | 50.1µM* | 0.1% | -2.9% | 16.7 | 4.1 | 10.0
O=C(O)CC1SC(=Nc2ccccc2)N(c2ccccc2)C1=O (configuration not stated) | -0.1 | 10.0% | -0.1% | -1.1% | 11.0 | 29.5 | 1.0
CC(C)c1ccccc1Oc1c(C(F)(F)F)oc2c(CN3CCN(C)CC3)c(O)ccc2c1=O | 1.0 | x | 0.7% | -5.6% | x | -11.2 | x
O=c1oc2ccccc2cc1-c1nc2c(s1)CCCC2 | 0.1 | 6.0% | 26.9%[38.3 µM] | 35.5µM* | -0.7 | -4.9 | 3.6
O=C(CN1C(=O)NC2(CCCC2)C1=O)Nc1ccc(F)c([N+](=O)[O-])c1 | 0.8 | -3.6% | 5.9% | x | -21.1 | 8.0 | -4.3
CCCc1cc(=O)[nH]c(SCC(=O)N2c3ccccc3CC2C)n1 (configuration not stated) | 3.1 | x | 0.2% | -1.3% | x | 23.1 | x
Cc1noc2nc(C(=O)O)nc(N3CCCCC3)c12 | -0.4 | x | 2.2% | -4.5% | x | 6.1 | x
COc1cc2cc(CNc3ccccc3)c(=O)n(CC(=O)Nc3ccccc3)c2cc1OC | 10.9 | x | -0.9% | 4.2% | x | 21.3 | x
CC(=O)C1=NOC2C(=O)N(c3ccc(Cl)cc3)C(=O)C12 (configuration not stated) | 1.5 | 9.2% | 1.7% | 2.4% | 27.1 | 13.6 | 6.2
CNS(=O)(=O)c1cnccc1N1CCN(c2cccc(Cl)c2)CC1 | 0.5 | 7.3% | -1.5% | -1.3% | -2.1 | 17.2 | 3.6
Cc1cccc(-n2c(-c3csc(C)c3)n[nH]c2=S)c1 | -0.1 | 3.9% | 0.9%[38.3 µM] | -24.9% | -8.5 | 16.7 | 0.7
CCC(C)(C)NC(=O)/C=C/c1cccs1 | -0.8 | 13.5% | 1.2% | -4.6% | -7.5 | 13.5 | 1.3
Cc1[nH]c2ccc(S(N)(=O)=O)cc2c1C | 0.4 | -10.5% | -4.0% | -7.5% | -4.1 | -12.1 | -1.4
Cc1noc(C)c1NC(=O)N(C)C[C@H]1Oc2c(NC(=O)C3CC3)cccc2C(=O)N([C@H](C)CO)C[C@@H]1C | -0.3 | x | 0.1% | 0.9% | x | 1.8 | x
COc1ccc(-c2cc(C(=O)N3CCCCCC3)no2)cc1OC | 0.2 | -0.6% | 0.5% | x | -7.7 | -3.0 | -1.2
O=c1[nH]c2ccc(S(=O)(=O)Nc3cc(Cl)ccc3O)cc2o1 | 3.0 | x | 0.1% | -2.1% | x | 3.7 | x

(continued)
Molecule | TRPML1 ag | Sfp inh | PINK1 expr mod | ClpP mod | TRPV1 PAM | TRPML1 blocker | Menin MLL FP FL
CCn1ncc(Br)c1C(=O)Nc1ccc(-c2ccno2)cc1 | 2.5 | 5.3% | 2.6% | 0.9% | -14.7 | 9.6 | x
O=C1c2ccccc2C(c2nnnn2Cc2ccccc2)N1C1CC1 (configuration not stated) | -0.5 | x | -0.8% | -0.1% | x | x | x
COc1cc(C(=O)NCC(c2ccc(F)cc2)N2CCOCC2)ccc1OCc1ccccc1Cl (configuration not stated) | 0.7 | x | 1.5% | 1.8% | 18.3 | 0.0 | x
COc1ccc(OC)c(CCNC(=O)c2nn(C)c3c2CS(=O)(=O)c2ccccc2-3)c1 | 0.1 | 15.7% | -0.3% | 0.4% | 7.5 | -4.9 | x
CCOc1ccc(C(=O)NCC(=O)OCC(=O)c2ccc3c(c2)-c2ccccc2C3)cc1 | 1.6 | 7.6% | -1.3% | -15.1% | 17.1 | -9.0 | 7.6
CC1CCc2cccc3c2N1c1cc(C#N)c(C#N)cc1O3 (configuration not stated) | 7.2 | 22.1% | -7.2%[38.3 µM] | -0.8% | -23.2 | 25.4 | u
Cc1nnsc1Sc1ccccc1 | -1.2 | -15.4% | 1.3% | x | 10.5 | -4.0 | 0.2
O=c1c(C(c2ccc(O)cc2)c2c(O)nc3n(c2=O)CCCS3)c(O)nc2n1CCCS2 | -1.1 | 25.1µM* | 2.2% | 0.8% | 8.7 | 4.7 | u
COc1ccccc1CCN1COc2c(cc3c(C)c(C)c(=O)oc3c2C)C1 | 1.4 | x | 2.6% | 3.9% | x | 5.8 | x
O=C(CCc1cn(Cc2ccc(F)cc2)c2ccccc12)NC1CCCCC1 | -0.4 | x | 1.3% | 4.4% | x | 9.1 | x
O=C(O)CSc1cn(Cc2ccccc2)c2ccccc12 | -1.1 | 2.8% | 0.5% | -3.3% | u | -0.2 | -12.1
Cc1ccc(O)c(NC(=O)CCC2CCCCC2)c1 | -1.2 | 0.4% | -0.7% | -0.3% | -13.6 | -2.9 | -0.6
Cc1c(C(=O)N2CCN(Cc3ccc4c(c3)OCO4)CC2)cccc1[N+](=O)[O-] | 0.0 | 8.6% | 0.0% | -0.5% | -5.1 | 9.8 | 1.3
COc1ccc(/C=C/C(=O)O)cc1S(=O)(=O)NCc1ccco1 | 0.1 | -24.9% | 1.2% | -2.5% | 11.9 | -17.2 | 1.3
O=C(/C=C/c1cccc(Cl)c1)OCc1cn2cc(Cl)ccc2n1 | 5.3 | -9.7% | 3.1% | x | 27.9 | 6.6 | 1.8
CCC(c1nnnn1CC1CCCO1)N(CCN1CCOCC1)Cc1cc2cc(C)ccc2[nH]c1=O (configuration not stated) | -0.1 | 44.7µM* | -2.6% | u | 8.7 | -8.1 | 4.9
N#Cc1cc2c(nc1SCC(=O)NCc1ccc3c(c1)OCO3)CCCCC2 | 1.9 | -3.4% | 4.3%[38.3 µM] | 3.4% | -5.6 | 10.4 | 0.6
O=C(c1cc(COc2c(F)cccc2F)on1)N1CCCCCC1 | -0.8 | 9.4% | 2.2% | u | -20.9 | -0.7 | x
CC[C@@]1(O)C(=O)OCc2c1cc1n(c2=O)Cc2cc3c(CN(C)C)c(O)ccc3nc2-1 | u | 16.3% | -0.7% | 29.2% | x | -1.0 | u
COCC(=O)N1CCC(Oc2ccc(C(=O)N3CCCCCC3)cc2)CC1 | 0.0 | 8.7% | -0.7% | -1.5% | 0.1 | -11.8 | -3.7
COC(=O)c1sccc1NC(=O)COc1ccc(Cl)cc1Cl | -0.4 | -3.3% | 28.9% | 7.7% | 8.0 | 10.6 | 6.0
CCN(CC)c1nc(N2CCOCC2)c(C#N)c2c1CN(C)CC2 | 0.2 | 16.3% | 1.0% | -10.7% | -3.0 | 2.6 | 0.8
COc1cc(/C=C(/NC(=O)c2ccccc2)C(=O)N2CCN(C)CC2)c([N+](=O)[O-])cc1OC | -0.1 | 7.2% | -0.8% | 0.4% | -6.8 | 22.3 | 7.1
Cc1ccc2[nH]c3c(=O)n(CCc4cnc[nH]4)cnc3c2c1 | -0.9 | 3.2% | 1.8% | 15.8µM* | -2.6 | -3.5 | -4.1
CN(Cc1nc2ccccc2c(=O)[nH]1)C(=O)c1cccc(S(=O)(=O)N2CCCC2)c1 | -0.2 | x | 2.1% | -1.5% | -6.4 | 1.8 | x
NNC(=O)c1ccc(CN2C(=O)c3cccc4cccc2c34)cc1 | 1.4 | 14.4% | 0.7% | -7.3% | 4.6 | 23.8 | 1.0
Cc1ccc(C)c(N2CCN(CCCNC(=O)Cn3cccc3C(=O)c3ccccc3)CC2)c1 | 0.3 | 6.1% | -0.8% | 0.9% | -4.0 | 24.2 | -2.0
OCCC#Cc1ccc(CN2CCN(Cc3ccccc3)C(CCO)C2)cc1 (configuration not stated) | -0.5 | 24.4% | -0.9% | -0.5% | 0.8 | 20.0 | -5.6
CCCSc1ccc(-c2nn(-c3ccccc3)cc2/C=C(/C#N)C(=O)NCCCOC)cc1 | 0.2 | 3.3% | u | 10.0% | -18.4 | -5.5 | 3.4
CC(=O)c1cccc(S(=O)(=O)N2CCCC(c3nc(-c4ccc(C)o4)no3)C2)c1 (configuration not stated) | -0.3 | 56.2µM* | 1.7%[38.3 µM] | -4.8% | -0.2 | 9.6 | 9.7
